Screening results from PubChem.
RecA intein inh: blocks M. tuberculosis RecA intein splicing; AID 2221; inhibition, %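 (about 9 µM by stock and volumes)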; cell-free RecA intein splicing, fluorescence; P9WHJ3; actives 0.75% (n = 290,000); in the data active = inhibition above about 30%; inconclusive = no clear call, values can overlap the other calls;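 note: 0% = vehicle wells and 100% = reference inhibitor control wells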
Target sequence (P9WHJ3 whole entry, looked up): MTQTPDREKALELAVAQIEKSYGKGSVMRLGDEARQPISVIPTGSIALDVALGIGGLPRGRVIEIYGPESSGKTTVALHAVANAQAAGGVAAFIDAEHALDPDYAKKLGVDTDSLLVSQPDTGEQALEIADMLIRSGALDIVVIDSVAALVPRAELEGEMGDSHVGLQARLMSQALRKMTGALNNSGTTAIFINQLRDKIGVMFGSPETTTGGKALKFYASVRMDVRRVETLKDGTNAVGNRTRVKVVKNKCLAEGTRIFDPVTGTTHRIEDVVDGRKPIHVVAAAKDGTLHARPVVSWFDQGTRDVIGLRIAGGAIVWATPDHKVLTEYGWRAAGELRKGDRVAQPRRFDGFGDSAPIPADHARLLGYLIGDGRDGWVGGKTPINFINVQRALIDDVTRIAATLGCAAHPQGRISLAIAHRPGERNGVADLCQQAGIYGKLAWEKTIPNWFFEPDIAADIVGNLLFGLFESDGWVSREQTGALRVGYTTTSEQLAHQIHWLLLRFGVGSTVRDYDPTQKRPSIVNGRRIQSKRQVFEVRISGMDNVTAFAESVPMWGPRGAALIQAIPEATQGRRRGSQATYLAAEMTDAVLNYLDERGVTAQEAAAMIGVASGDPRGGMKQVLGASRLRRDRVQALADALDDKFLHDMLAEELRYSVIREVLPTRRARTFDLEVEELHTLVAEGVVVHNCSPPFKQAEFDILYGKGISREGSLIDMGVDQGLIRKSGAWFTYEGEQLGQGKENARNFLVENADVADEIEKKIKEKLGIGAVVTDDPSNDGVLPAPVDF
Mtb H37Rv: M. tuberculosis H37Rv growth inhibitors, H37Rv strain (AID 1626). M. tuberculosis H37Rv growth inhibition; higher % means a stronger effect. inhibition, % at 10 µM; hits with a dose series show IC50 in µM. actives 0.95% (n = 220,000);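 active = confirmed in a dose series; inconclusive = inhibition above 80% but not taken into the dose series; inactive = below 80% or under 30% at every dose of the series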;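 note: bacteria incubated seven days before Alamar blue readout; 0% = bacteria only wells and 100% = bacteria with antibiotic wells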
Mtb bLac sens: beta-lactam sensitization of Mtb H37Rv; M. tuberculosis H37Rv growth with meropenem, percent inhibition; hits of this screen are not shown here; actives 0.27% (n = 330,000); inhibition, % at 25 µM; AID 434955;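 active = about 74% or more and at least 40 points above the plate without the antibiotic, then above 30% in a dose series; inconclusive = first-round hits that could not be retested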;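 note: growth measured after seven days incubation then overnight dye step; 0% = bacteria only wells and 100% = bacteria with antibiotic; twin plates without the antibiotic show which effects depend on it; some results filed as inactive read as strong as hits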
YopH PTP inh: blocks Yersinia enterocolitica YopH tyrosine phosphatase; fluorescence Ex485/Em525; inhibition, %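 (about 10 µM by stock and volumes)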; actives 0.16% (n = 140,000); AID 898;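 active = inhibition of 50% or more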;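 note: controls were vehicle for no effect and minimum signal wells for full effect; inactives centre near -20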
Arbovirus inh: arbovirus infection inhibition | arbovirus infection cell-based antiviral screen | inhibition, % at 10 µM | actives 0.37% (n = 200,000);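 active = inhibition from about 30%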;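 note: bluetongue infection of BSR cells; cell survival read as ATP light after 72 h; 0% = infected wells without compound and 100% = uninfected wells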
Arbovirus inh repeat: second read-out of Arbovirus inh, no call of its own (marks repeat the call); inhibition, %; measured here: 10K subset replicate screen; many hits read low in the repeat;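 first of two repeat runs on a subset; 0% = infected and 100% = uninfected wells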
* = called active by the depositor; ? = inconclusive; . = not tested or not shown. Not all compounds are listed. The share of hits here may be higher or lower than overall.

SMILES	RecA intein inh	Mtb H37Rv	Mtb bLac sens	YopH PTP inh	Arbovirus inh	others
CCCCC(=O)Nc1ccc(NC(=O)c2cccs2)cn1	-1.1	14%	-4	-14	-20
Brc1ccc(-c2csc(NC3=NCCCCC3)n2)cc1	-0.7	24%	74	-23	1
Cc1ccc(C(=O)C(C)N(C(=O)c2ccc(Cl)cc2Cl)N2C(=O)CCCC2=O)cc1 (stereo not given)	0.1	1%	-9	.	16
COC(=O)c1c(NC(=O)c2ccc(S(=O)(=O)N3CCOCC3)cc2)sc2c1CCN(C(C)C)C2	12	.	-3	.	.
CC1(OC(=O)c2ccco2)C(=O)C=C2C=C(c3ccc(C#N)cc3)OC=C2C1=O (stereo not given)	-2.2	-1%	0	.	.
CSC(=NCc1ccco1)NC#N	-1.0	-5%	-8	.	.
CCOc1cc(-c2nc(C)c(C(C)=O)n2O)ccc1OCC(=O)Nc1cccc(C)c1	-1.1	17%	78	.	13
Cc1cc(Cl)ccc1N(CC(=O)NCc1ccc2c(c1)OCO2)S(C)(=O)=O	.	-3%	-2	.	-1
COC(=O)c1sc(NC(=O)COc2c(C)cccc2C)nc1C	1.3	-2%	-6	.	-14
CC(=O)c1cnc2cc(-c3cccc(Br)c3)nn2c1C	15	7%	6	.	12
CCc1ccc(NC(=O)CCc2nnc3ccc(N4CCC5(CC4)OCCO5)nn23)cc1	1.1	.	4	.	.
OCCC1CN(Cc2ccncc2)CCN1C1CCCC1 (stereo not given)	-2.2	1%	-5	.	6
CC(C)(C)c1ccc(-c2nc(NCc3cccnc3)c3ccccc3n2)cc1	11	4.8µM*	99	-23	-40
Cc1ccc(S(=O)(=O)N2CCC(=O)N(CCOCc3cccc(C(F)(F)F)c3)CC2)cc1	2.1	-4%	-6	-14	-9
Cn1nc([N+](=O)[O-])nc1Oc1ccc(C(C)(C)C)cc1	3.0	?	100	-25	3

The final 2 records of the section above lead into the next:
SMILES	RecA intein inh	Mtb H37Rv	Mtb bLac sens	YopH PTP inh	Arbovirus inh	others
Cc1ccc(S(=O)(=O)N2CCC(=O)N(CCOCc3cccc(C(F)(F)F)c3)CC2)cc1	2.1	-4%	-6	-14	-9
Cn1nc([N+](=O)[O-])nc1Oc1ccc(C(C)(C)C)cc1	3.0	?	100	-25	3
CCOC(=O)c1[nH]c2ccc(OC)cc2c1NC(=O)CN1CCN(c2ccccn2)CC1	-0.7	.	-1	-40	6
c1cncc(-c2noc(C34CC5CC(CC(C5)C3)C4)n2)c1	2.4	-10%	6	2	11
Cc1cccn2c(=O)c(C=NCCO)c(NCc3ccco3)nc12	-1.0	12%	4	0	12
COc1cc(/C=N/N2CCN(c3ccccc3)CC2)cc(OC)c1OC(C)=O	-3.6	.	-2	.	.
CCCn1c(=O)[nH]c(=O)c2c1nc(-c1ccc(OC(F)F)c(OC)c1)n2CCOC	53*	4%	-17	-14	-6
FC(F)(F)c1cnc(COc2cc(Cl)cc(Cl)c2)c(Cl)c1	.	-2%	-6	.	.
O=C(COc1ccc2ccc(=O)oc2c1)Nc1c(Cl)cccc1C(F)(F)F	0.5	.	-2	.	.
O=C(NCc1ccco1)C1(c2ccccc2)CCCC1	5.9	-9%	2	-190	2
Cc1ccccc1C(=O)c1cccn1CC(=O)O	0.2	-2%	6	-36	-5
CCCCC(=O)Nc1cc(C)c(NC(=O)c2ccco2)cn1	-1.6	.	-3	.	.
COc1ccc(/C=C/C(=O)OC2CCCN(C)C2)cc1 (stereo not given)	1.2	1%	5	.	1
COCCNC(=O)Cn1cc(C(=S)N2CCOCC2)c2ccccc21	-1.1	1%	0	.	9
COc1ccc(OCc2nn3c(-c4ccco4)nnc3s2)cc1	1.2	24%	7	-18	-5
CSc1ccc(/C=N/NC(=O)c2cccc(O)c2)cc1	0.2	4%	68	5	-15
Cc1ccc2c(c1)nnn2C1CCN(CC(=O)Nc2ccccc2N2CCOCC2)CC1	.	9%	93	-23	-23

3 successive entries out of the list so far, quoted:
SMILES	RecA intein inh	Mtb H37Rv	Mtb bLac sens	YopH PTP inh	Arbovirus inh	others
CCOC(=O)c1[nH]c2ccc(OC)cc2c1NC(=O)CN1CCN(c2ccccn2)CC1	-0.7	.	-1	-40	6
c1cncc(-c2noc(C34CC5CC(CC(C5)C3)C4)n2)c1	2.4	-10%	6	2	11
Cc1cccn2c(=O)c(C=NCCO)c(NCc3ccco3)nc12	-1.0	12%	4	0	12

More structures.
SMILES	RecA intein inh	Mtb H37Rv	Mtb bLac sens	YopH PTP inh	Arbovirus inh	others
Cc1ccc2nc(-c3ccc(NC(=O)COC(=O)c4ccco4)cc3)sc2c1	0.0	-5%	6	-21	-12
CCOC(=O)Cn1c(=O)n(Cc2ccc(C)cc2)c(=O)c2cccnc21	-2.7	.	6	.	.
Cc1onc(-c2ccccc2)c1C(=O)N/N=C/c1cn(C)c2ccccc12	2.5	-2%	-2	.	8
CC(C)CNC(=O)CSc1ccc(Cl)cc1	-0.6	3%	-9	-21	-2
CCOc1ccc2[nH]c(C(=O)N/N=C/c3cc(OC)c(OC)c(OC)c3)cc2c1	-0.3	.	-8	.	.
Cc1ccc(NCc2nnc(SCC(=O)NCc3ccco3)n2CC2CCCO2)cc1Cl (stereo not given)	4.0	4%	-2	-82	8
O=C(CSc1nc2ccccc2[nH]1)N1CCN(S(=O)(=O)c2ccc(Cl)cc2)CC1	0.4	3%	-16	3	4
Cc1cc(C)nc(SCC(=O)NC2CCCC2)n1	-0.6	-7%	11	.	0
CCOc1cc(Br)c(C(=O)O)cc1OC	-0.6	-1%	2	-14	10
CCCN1CCC(NC(=O)C2CC=CCC2C(=O)O)CC1 (stereo not given)	1.1	.	2	.	.
Cc1csc(=O)n1CC(=O)OCC(=O)c1c(N)n(CC(C)C)c(=O)n(C)c1=O	0.4	.	-5	.	.
COCc1cc(C)nc2sc(C(=O)Nc3ccc(C(=O)OC)cc3)c(N)c12	-3.3	.	12	.	.
Cc1cccc(NC(=O)c2cc3n(n2)C(C(F)(F)F)CC(C2CC2)N3)c1C (stereo not given)	-0.1	6%	5	-11	-2
Cc1cc(C(=O)COC(=O)c2nc3nccc(C)n3n2)c(C)n1CC1CCCO1 (stereo not given)	-0.1	-3%	-6	.	19
COC(=O)Cn1c(=NC(=O)c2cc(OC)cc(OC)c2)sc2cc(OC)ccc21	0.1	-3%	-7	-24	-2
CCOc1ccc(N(CC(=O)Nc2ccc(OC)cc2)S(=O)(=O)c2c(C)noc2C)cc1	.	-5%	-6	-47	-3	Arbovirus inh repeat=-8
COC(=O)c1sccc1NC(=S)N1C(C)CCCC1C (stereo not given)	1.3	2%	-4	.	-3
Cc1ccccc1NC(=S)NCCc1ccc(S(N)(=O)=O)cc1	-0.4	-4%	0	-24	9
O=C(CSc1nnc(CNC(=O)c2cccs2)o1)NCCc1ccccc1	-1.2	17%	38	24	-1
CC(=O)c1ccc2noc(-c3ccc(F)cc3)c2c1	-13	-1%	2	.	2
O=C(N/N=C/c1ccc(C(F)(F)F)cc1)c1ccc(O)cc1	1.0	0%	4	.	-15
CCC(=O)C1CCCN(C(=O)c2ccc(OC)c(OC3CCN(C(C)=O)CC3)c2)C1 (stereo not given)	0.7	.	3	.	.
CC(=O)Nc1cccc(Oc2ncnc3scc(-c4ccc(C)cc4)c23)c1	.	17%	49	-17	18
CN1c2ccccc2C(C)(C)C12CC(c1cccc(S(=O)(=O)N3CCCC3)c1)=NO2 (stereo not given)	-1.2	-3%	-5	-27	10
N#CC[C@H](Cc1ccccc1)N1CCN(Cc2ccccc2)CCC1=O	0.8	.	-4	.	.
O=C(CN1CCN(Cc2ccc3c(c2)OCO3)CC1)Nc1ccc(N2CCOCC2)cc1	-0.9	-8%	0	.	-4
Cc1cc(O)c(C(=O)/C=C/c2ccccc2Br)c(=O)o1	1.4	.	-3	.	.
COc1cccc(CSc2nnc(CSc3nc4nc(C)cc(C)n4n3)s2)c1	0.2	16%	5	-3	3
COc1cc2cc(C(=O)N(C)Cc3ccccc3)[nH]c2cc1OC	-3.5	.	3	.	.
COC(=O)/C=C1\SC(=NC(=O)c2cccc(Cl)c2)NC1=O	9.2	.	5	-43	-2

Of the compounds above, these have a tert-butyl group:
SMILES	RecA intein inh	Mtb H37Rv	Mtb bLac sens	YopH PTP inh	Arbovirus inh	others
CC(C)(C)c1ccc(-c2nc(NCc3cccnc3)c3ccccc3n2)cc1	11	4.8µM*	99	-23	-40
Cn1nc([N+](=O)[O-])nc1Oc1ccc(C(C)(C)C)cc1	3.0	?	100	-25	3

More records
SMILES	RecA intein inh	Mtb H37Rv	Mtb bLac sens	YopH PTP inh	Arbovirus inh	others
Cc1ccc(C)c(N/C(N)=N/c2nc(C)cc(C)n2)c1	0.8	?	100	-44	6
COc1cc(C(C[N+](=O)[O-])c2c(C)[nH]c3ccccc23)ccc1O (stereo not given)	0.6	6%	1	0	5
c1ccc(CN2CCN(C(c3ccccc3)c3nnnn3Cc3ccccc3)CC2)cc1 (stereo not given)	5.1	5%	-3	-2	8
CN(c1ccc(C(=O)N2CCCCC2)cc1)S(=O)(=O)c1ccccc1	-3.1	0%	21	5	2
COc1ccc(NS(=O)(=O)c2ccc3c(c2)Cc2ccccc2-3)cn1	12	-1%	-8	-14	22
CCn1cc(C(=O)NC2CCC(C)CC2)c(=O)c2cc(S(=O)(=O)N3CCCCC3)ccc21 (stereo not given)	.	6%	1	-28	-28
COC(=O)COc1ccsc1C(=O)OC	-0.4	-1%	.	-2	2
O=S(=O)(c1cccc(C(F)(F)F)c1)N1CCC(c2nc3ccccc3[nH]2)CC1	2.4	.	-5	.	.
O=C(NCc1ccco1)c1ccc2ccccc2c1	-0.2	-4%	9	-30	-1
Cc1ccc2cc(CN(Cc3ccccc3)Cc3nnnn3C3CCCC3)c(=O)[nH]c2c1	20	-2%	3	-21	-29
CN(C(=O)CCc1ccccc1)c1nnc(-c2ccncc2)s1	1.8	0%	-10	.	-8
CNC(=S)N/N=C/c1cc(C)n(-c2ccc(Cl)c(Cl)c2)c1C	6.6	3%	42	-26	-4
CNc1c(NS(=O)(=O)c2ccc(C3CCCCC3)cc2)c(=O)oc2ccccc12	-0.9	.	-4	.	.
CCn1c(=S)[nH]c2cc(C(=O)OC)ccc2c1=O	-3.5	-3%	45	0	14
COc1ccc(CCNC(=O)c2ccnc(C(C)(C)C)c2)cc1OC	0.4	.	-8	.	.
CCOCCCN(C(=O)c1snc(C(N)=O)c1N)C(C(=O)NCCC(C)C)c1ccc(F)cc1 (stereo not given)	-1.1	.	0	.	.

Retrieved one by one from above:
SMILES	RecA intein inh	Mtb H37Rv	Mtb bLac sens	YopH PTP inh	Arbovirus inh	others
COc1ccc(CCNC(=O)c2ccnc(C(C)(C)C)c2)cc1OC	0.4	.	-8	.	.
CNc1c(NS(=O)(=O)c2ccc(C3CCCCC3)cc2)c(=O)oc2ccccc12	-0.9	.	-4	.	.
CN(c1ccc(C(=O)N2CCCCC2)cc1)S(=O)(=O)c1ccccc1	-3.1	0%	21	5	2
